Source: PubChem BioAssay
eIF4H inh: human eIF4H binding inhibitors, primary screen, translation initiation inhibitor project, biochemical, uHTS, fluorescence polarization; eIF4H fluorescence polarization binding assay; inhibition, % at 35 µM; actives 0.94% (n = 290,000);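 active = 50% or more with normal probe brightness, or confirmed in later tests; about a fifth of its hits are not listed in these tables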;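 note: calls also rest on retests at 20 µM and on dose response follow-up; 0% = protein and probe with vehicle and 100% = probe without protein; strong numbers were not always called active; many hits fall short of the cut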
CSC inhib: cancer stem cell viability inhibitors, primary screen, luminescence | cancer stem cell-like cells viability | inhibition, % at 7.5 µM | actives 1.1% (n = 300,000) | AID 2717, 2010;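 active = mean at 75% or more and at least half the replicates too; tested in HMLE shEcad cells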;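 note: 0% = median of negative and 100% = median of positive control wells; the first replicate is given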
PABP polyA inh: PABP poly(A) RNA binding inhibitors, primary screen, biochemical, fluorescence polarization, uHTS | Polyadenylate-binding protein 1 (Homo sapiens), P11940 | AID 2014, 2009 | actives 1% (n = 290,000) | inhibition, % at 35 µM;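 active = 50% or more with normal probe brightness, or confirmed in later tests; about a fifth of its hits are not listed in these tables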;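 note: calls also rest on retests at 20 µM and on dose response follow-up; controls were probe without protein and protein plus probe with vehicle; some compounds called inactive have numbers as strong as hits; many hits fall short of the cut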
MT1-MMP act inh: blockers of MT1-MMP proenzyme processing, primary screen, HT1080 RFP-PRO-GFP cells, GFP/RFP fluorescence. actives 0.061% (n = 360,000). Matrix metalloproteinase-14 (Homo sapiens), P50281. GFP/RFP ratio change, % at 20 µM. GFP/RFP ratio fluorescence, overnight; percent of plate control window, DMSO zero;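 active = GFP/RFP ratio change of at least 30% with cell ATP level not reduced by more than half and red fluorescence within 50% of control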; note: strong numbers were not always called active
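Test system: HT1080 RFP-PRO-GFP cells; Benchmarks: DMSO and RFP-L50D-GFP cell wells; Timing: cells overnight before dosing, compound overnight, 37 °C, 5% CO2; Compound: one 20 µM compound dose with 1% DMSO; Read-out: GFP/RFP fluorescence ratio.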
UUG fidelity: modulators of yeast start codon fidelity, primary screen, whole organism, S. cerevisiae, single point, plate reader | S. cerevisiae UUG-firefly luciferase reporter, luminescence/redox ratio | activity score, % at 18.7 µM | actives 0.13% (n = 350,000);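 active = replicate mean at a twofold rise or more, about +100% in these data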;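 note: firefly luciferase made from a UUG start codon reports start codon fidelity; reporter light over untreated wells divided by growth signal over untreated wells; some hits fall short of that in this replicate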
Rce1 inh: yeast Rce1p protease inhibitors, primary screen, biochemical, fluorescence, cell-free homogeneous; AID 2563, 2010; calls only; yeast membranes, quenched prenylated peptide cleavage fluorescence; CAAX prenyl protease 2 (Saccharomyces cerevisiae (strain ATCC 204508 / S288c)), Q03530; actives 0.27% (n = 290,000);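 active = fall in fluorescence gain of 50% or more versus controls, with final raw signal at or below 3038400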;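 note: plate controls were neutral control wells for no effect and wells lacking membranes for full effect; tested at 10 µM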
Target sequence (Q03530 whole entry, looked up): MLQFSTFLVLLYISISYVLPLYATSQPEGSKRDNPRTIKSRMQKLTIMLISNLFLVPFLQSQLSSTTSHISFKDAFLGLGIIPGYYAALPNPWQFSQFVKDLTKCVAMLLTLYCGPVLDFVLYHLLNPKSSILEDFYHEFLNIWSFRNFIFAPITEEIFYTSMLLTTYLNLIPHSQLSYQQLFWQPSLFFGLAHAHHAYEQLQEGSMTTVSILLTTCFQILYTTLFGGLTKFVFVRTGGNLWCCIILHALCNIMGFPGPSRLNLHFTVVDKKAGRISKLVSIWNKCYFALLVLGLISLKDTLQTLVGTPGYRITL
HIV Env fusion: inhibitors of HIV-1 Env-driven cell-cell fusion, primary screen, HeLa-JRFL effector, CEM21 target cells, luciferase. inhibition, % at 12.3 µM. actives 1.1% (n = 360,000);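 active = mean replicate inhibition score of at least 50 and every replicate individually at or above 50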;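 note: 0% = plate neutral controls and 100% = maraviroc near 300 nM; one replicate is shown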
MT1-MMP act inh RFP: second read-out of MT1-MMP act inh, no call of its own (marks repeat the call); RFP signal change, %; measured here: RFP expression control read;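 0 = vehicle wells; hits needed this value within 50% of zero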
The depositor's hits bear a star; i = inactive; / = not tested or not shown; & = joins results of further samples. Only part of the results is shown (hit frequency here may not be typical).

SMILES	eIF4H inh	CSC inhib	PABP polyA inh	MT1-MMP act inh	MT1-MMP act inh RFP	UUG fidelity	Rce1 inh	HIV Env fusion
Cc1ccc(-c2ncns2)cc1	2	0	-5	-3	2	-13	i	-11
O=C1C2C3c4ccccc4C(c4ccccc43)C2C(=O)N1c1nc(-c2ccccc2)cs1 (configuration not stated)	2	18	6	-3	-3	-13	i	-7
COC(C[C@H](O)CC(=O)COCc1ccccc1)OC	-10	/	-6	-3	7	-12	i	-24
Cc1cc2c(C)c(C)c(=O)[nH]c2cc1N	-6	10	7	18	-1	-27	i	-325
CCCCOc1ccc(S(=O)(=O)n2c(C)nc3ccccc32)cc1	-11	-4	-2	3	-9	-17	i	/
CCOC(=O)CCC(=O)NNC(=O)COc1ccc(C(C)C)cc1Br	0	14	8	3	4	-3	i	12
CC(Sc1ccccc1)C(=O)NN=C1CCCC1 (configuration not stated)	-13	-8	3	4	6	-1	i	-4
Cc1ccc(C(=O)O/N=C(\N)c2ccccn2)cc1Cl	-8	-3	8	-2	-4	-83	i	-153
COc1ccc(CNC(=O)CN2C(=O)C(c3ccccc3)Oc3cccnc32)cc1 (configuration not stated)	-7	9	-2	1	2	-10	i	0
O=S1(=O)CC(N2CCCC2)CN1C1CCCCC1 (configuration not stated)	/	/	/	1	6	-5	/	7
Cc1ccc2c(c1)nnn2C1CCN(C(=O)NCc2ccccc2)CC1	-1	-5	20	7	4	/	i	1
COc1ccc(C)cc1NS(=O)(=O)c1ccc(Br)s1	-14	19	0	1	-3	25	i	/
COc1cccc(OC)c1OCCCc1c(C)n[nH]c1C	-3	-12	6	1	2	-12	i	-55
Cc1ccc(OCC(=O)NCc2ccccn2)cc1	-5	-4	3	0	5	-26	i	/
O=C1c2sc3nc4ccccc4n3c2C(=O)N1c1ccccc1Cl	-3	18	15	-15	-2	/	i	/
COCCCNC(=O)c1cc(C(=O)c2c(-c3c(Cl)cccc3Cl)noc2C)c[nH]1	-12	15	-9	-3	-7	-43	i	/
CCOC(=O)Cc1ccc(NC(=O)c2ccc([N+](=O)[O-])cc2)cc1	1	-7	-7	7	-7	/	i	5
Cc1cccc(C(C)C)c1NC(=O)c1cc2ccccc2o1	-3	-10	-3	1	-4	-4	i	10
Cc1ccc(-c2noc(CCCC(=O)NCC3CCCO3)n2)cc1 (configuration not stated)	-4	/	-1	1	-1	9	i	9
O=C(CN1CCC(Cc2ccccc2)CC1)N1CCc2ccccc2C1	5	33	8	4	3	/	i	-52
Cc1ccc(-c2nc3ccccc3[nH]2)cc1NC(=O)c1ccc2c(c1)OCO2	3	-9	2	9	0	-25	i	/
O=C(CSc1nnc(Cc2ccccc2)o1)c1ccccc1	-2	-11	4	1	0	-15	i	-4
CCOC(=O)c1ccc(Oc2nc(NC)nc(SC)n2)cc1	-5	0	-1	3	2	/	i	/
COc1ccc2nc(NC(=O)CSc3nc4ccccc4o3)sc2c1	-13	/	-1	3	-6	-24	i	/
COC(=O)c1sc(NC(=S)NC(=O)c2ccccc2F)nc1C	2	1	9	0	2	/	/	-33
O=C1CSc2ccc(S(=O)(=O)NCc3ccc(Cl)cc3)cc2N1	-6	13	-14	-3	-2	/	i	-6
CCC(C(=O)N(C(C)C)C(C)C)c1ccccc1 (configuration not stated)	/	4	/	3	3	-14	/	-1
O=C(O)c1cc2cccc(S(=O)(=O)N3CCOCC3)c2cc1O	-15	/	4	3	-5	-9	i	16
CC(=O)Nc1cc(N2C(=O)CCC2=O)ccc1Cl	-4	-20	10	-1	5	-15	i	-2
Cc1nc2ccccn2c1C(=O)N/N=C/c1ccccc1Cl	7	-24	2	2	-1	-5	i	20
Cc1ccc(-c2noc(CCC(=O)NCCN3CCOCC3)n2)cc1	-8	-15	2	4	1	-9	i	/
CCN(Cc1ccccc1)C(=O)CC(=O)N(CC)Cc1ccccc1	1	19	5	0	-2	-6	i	3
CC1CNCCN1S(=O)(=O)c1cccc2cnccc12 (configuration not stated)	-4	-14&3	0	-15&-19	-18&-7	-21&2	i	-7&-22
CC(OC(=O)Cn1cnc2c1c(=O)n(C)c(=O)n2C)C(=O)NC1CCCCC1C (configuration not stated)	/	-7	/	-2	2	/	i	-2
COCCn1c(SCC(=O)Nc2cccc(OC)c2)nc2c(oc3ccccc32)c1=O	-3	-3	4	-7	-5	/	i	-5
Cc1c(C)n(CCN(C)C)c2ncnc(NCc3ccccc3)c12	-2	-2	3	5	1	1	i	1
Cc1cc(C)cc(NC(=S)N(Cc2ccc(Cl)cc2)Cc2ccc(C(=O)O)cc2)c1	-2	4	4	5	-4	-30	i	-11
CC(=O)n1cc([C@H]2C=C(C(=O)N3CCN(Cc4ccc5c(c4)OCO5)CC3)O[C@@H](OCCCCO)C2)c2ccccc21	-7	-4	-2	4	-4	-1	i	16
CCCCCNC(=O)c1cc(S(=O)(=O)N2CCCC2)ccc1F	3	-4	4	6	2	/	i	-1
CC(C)N1C(=O)CCC1C(=O)NCCc1ccc(Cl)cc1 (configuration not stated)	-4	-12	4	-3	0	-25	i	1
COc1cc(C(=O)N/C(=C\c2cn(S(=O)(=O)N(C)C)c3ccccc23)C(=O)N2CCCC2)cc(OC)c1OC	-8	1	2	5	-3	-10	i	-20
Cc1ccc(-n2c(CCC(=O)O)ccc2-c2cccs2)cc1C	-1	14	-3	-6	4	-14	i	/
Cc1nc2ccc(C(=O)N3CCN(C(=O)c4ccco4)CC3)cn2c1N(C)C(=O)CCc1ccccc1	/	/	/	2	8	-13	/	22
Cc1cc(NS(=O)(=O)c2ccc(NC(=O)C(C)Oc3cc(C)c(Cl)c(C)c3)cc2)no1 (configuration not stated)	-4	7	24	13	4	-5	i	/
COC(=O)C1CCN(C(=O)Cn2nnc(-c3cccc(F)c3)n2)CC1	-7	-6	-6	9	-1	/	i	-7
NC(=S)N/N=C/c1c[nH]c2ccc(OCc3ccccc3)cc12	-2	17	2	-2	-28	-35	i	/
COc1ccc(F)cc1C(=O)C1CCCN(Cc2ccc(Oc3ncccn3)cc2)C1 (configuration not stated)	-2	3	-3	-6	-4	/	i	18
Cc1ccccc1NC(=S)NNC(=O)c1ccncc1	2	-23	-9	-5	-1	/	i	7
COc1ccc(NC(=S)N2CCC(N(C)CC3CCCO3)CC2)cc1 (configuration not stated)	-8	-11	-7	1	2	/	i	0
O=C(Cc1cccc2ccccc12)NCC(=O)Nc1ccccc1F	31	-2	-6	-5	1	-2	i	-10
O=C(OCc1ccccc1)/C(=C/c1cccc2ccccc12)NC(=O)c1ccccc1	-9	2	-23	0	0	/	i	-40
CC(C)(C)c1nc(SCC(=O)NCc2ccco2)c2ccccc2n1	-8	13	9	-11	-3	-16	i	17
COCC(=O)Oc1c(S(=O)(=O)c2ccccc2)c(C)nn1C(C)(C)C	-2	7	-9	-3	3	-8	i	-2
N#Cc1ccc(-c2ccccc2)nc1SCCN1CCOCC1	2	10	-12	-4	0	/	/	-12
COc1ccccc1-c1c(C)nn2c(NCCN3CCCC3)cc(C)nc12	7	-8	6	0	1	-28	i	-13
O=S(=O)(NCCn1ccc2ccccc21)c1ccccc1	-4	-1	0	1	3	3	i	9
CCN(CC)CCCNC(=O)/C=C/C(=O)O	10	5	-1	1	-2	/	/	7
COc1ccccc1NS(=O)(=O)c1ccc(O)c(NC(=S)NCC2CCCO2)c1 (configuration not stated)	0	-3	0	4	-8	-26	i	-9
CCN1C(=O)[C@H]2[C@@H](c3ccc(-c4ccc(OC)cc4)c(OC)c3)N[C@@](CC(C)C)(C(=O)OC)[C@H]2C1=O	/	/	/	-5	-6	-12	/	-40
COc1ccc([N+](=O)[O-])cc1NC1CCN(C(=O)c2cccs2)CC1	13	3	3	/	/	-8	i	39

3 compounds from above, arranged by their value in HIV Env fusion, largest number first.
SMILES,HIV Env fusion
O=S(=O)(NCCn1ccc2ccccc21)c1ccccc1,9
O=C(OCc1ccccc1)/C(=C/c1cccc2ccccc12)NC(=O)c1ccccc1,-40
Cc1cc2c(C)c(C)c(=O)[nH]c2cc1N,-325

Some entries already given with just MT1-MMP act inh RFP and PABP polyA inh:
structure	MT1-MMP act inh RFP	PABP polyA inh
COc1ccc(F)cc1C(=O)C1CCCN(Cc2ccc(Oc3ncccn3)cc2)C1 (configuration not stated)	-4	-3
Cc1ccccc1NC(=S)NNC(=O)c1ccncc1	-1	-9
COc1ccc(NC(=S)N2CCC(N(C)CC3CCCO3)CC2)cc1 (configuration not stated)	2	-7
O=C(Cc1cccc2ccccc12)NCC(=O)Nc1ccccc1F	1	-6
O=C(OCc1ccccc1)/C(=C/c1cccc2ccccc12)NC(=O)c1ccccc1	0	-23

The results go on:
SMILES	eIF4H inh	CSC inhib	PABP polyA inh	MT1-MMP act inh	MT1-MMP act inh RFP	UUG fidelity	Rce1 inh	HIV Env fusion
Cc1ccc(-n2nnnc2SCC(=O)N2Cc3ccccc3CC2C(=O)O)cc1 (configuration not stated)	-4	-3	25	2	3	-2	i	-3
O=C1CCCN1c1ccc(S(=O)(=O)N2CCC(c3ccccc3)CC2)cc1	14	-10	0	-1	-21	-1	i	35
CCOc1ccc(CCNC(=O)c2cccc(N3CCCC3=O)c2)cc1OCC	-10	-8	6	4	5	-4	i	67
CCCCN(C)C(=O)c1ccc2c(c1)S(=O)(=O)c1ccccc1C2=O	17	4	27	-6	2	8	i	-4
CC(C)COC(=O)N1CCCC(c2cc(C(=O)Nc3ccccc3Cl)no2)C1 (configuration not stated)	/	/	/	2	-3	-4	/	6
Cc1ccc(S(=O)(=O)NN2C(=O)/C(=C\c3ccc(Cl)cc3)SC2=S)cc1	-10	/	-6	2	2	-3	i	1
Cc1cc(=O)oc2c3c(cc(OCC(=O)NCCC(=O)O)c12)OC(C)(C)CC3	-8	-5	0	2	5	-16	i	0
O=S(=O)(Nc1ccc2ccccc2n1)c1ccccc1	2	-8	-1	-1	2	-7	i	-3
CCS(=O)(=O)c1ccc(-c2cccc(NC(=O)COc3ccc(Cl)cc3)c2)nn1	9	-4	7	6	7	-6	i	-15
Cc1ccc(-c2csc(SCC(=O)Nc3cc(C)on3)n2)cc1	-4	-7	-6	-4	-9	-18	i	21
CC(C)N(C(=O)[C@H]1CC(CC(=O)NCCCN(C)C)C(=O)N2CCc3c([nH]c4ccccc34)[C@]12C)C(C)C (some centres not stated)	/	11	/	-2	2	15	/	/
O=C(/C=C/c1ccccc1)N1CCN(Cc2nc3ccccc3c(=O)[nH]2)CC1	-2	1	-5	-1	5	/	i	/
COc1cccc(/C=c2\s/c(=C\C(=O)C(C)(C)C)[nH]c2=O)c1	0	33	-5	7	3	/	i	-33
CSc1nsc(NC(=O)CCNC(=O)c2ccc([N+](=O)[O-])cc2)n1	4	-7	10	1	0	-10	/	-8
O=C(Nc1ccc(S(=O)(=O)Nc2nccs2)cc1)c1ccc(F)cc1	11	-4	12	2	-2	15	i	0
Cc1ccccc1SCC(=O)NNC(=O)c1ccccc1O	18	26	15	4	1	-5	i	36
COc1cccc(OCC(O)CN2CCN(c3ccccn3)CC2)c1 (configuration not stated)	-8	-12	-8	-4	-3	-2	i	/
CC(C)(C)S(=O)N1Cc2cc(CO)cc(-c3ccccc3)c2[C@H]1CCO (some centres not stated)	/	/	/	-6	3	-3	/	0
COc1ccc(OC)c(N(C)S(=O)(=O)c2cc3c(cc2C)NC(=O)CO3)c1	-2	-1	1	-3	0	5	i	-17
O=c1cnc2ccccc2n1Cc1ccccc1	/	/	/	0	4	3	/	-17
